UCH37 DUB inh = inhibitors of human UCH37 deubiquitinase, primary screen, biochemical, Ub-AMC cleavage, fluorescence. purified proteasome/UCH37. inhibition, % (test concentration not listed). Ubiquitin carboxyl-terminal hydrolase isozyme L5 (Homo sapiens), Q9Y5K5. 330,000 tested, 0.33% active;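 active means mean of two replicates above 20%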;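 further: 0% = compound-free wells with enzyme and 100% = wells lacking proteasome; stock transfer was 100 nL into about 20 µL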
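system = Proteasome-associated human UCH37 deubiquitinase | amount = 0.15 nM proteasome as dispensed | medium = pH 7.4 Tris-HCl (50 mM) with ovalbumin, ATP-MgCl2, DTT | incubation = 30 min preincubation with enzyme, 25 min cleavage at room temperature | detection = AMC fluorescence 355/460 nm | read-out basis = percent inhibition | controls = no-proteasome and no-compound wells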
Ecoli rRNA inh = reduced GFP signal of wild-type E. coli, primary screen, bacterial rRNA inhibitor project, GFP/RFP fluorescence, OD600, single point; AID 720706, 2013; 350,000 tested, 1.6% active; E. coli WT GFP vs humanized-ribosome RFP mutants, 24 h; hits give low values; DMSO median 0, no signal -100; GFP signal change (wild-type ribosome), % (no concentration beside the values);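 active means significant combined selectivity score with lowered wild-type GFP, culture density cut under 30%, mutant RFP and density less affected; inactive means any of these conditions unmet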; further: one replicate is shown; some compounds called inactive have numbers as strong as hits
Beta2AR agonist = beta2AR agonists driving receptor internalization, primary screen, cell-based, FAP fluorogen, flow cytometry | Am2.2-beta2AR cells; reference of the scale not given here | response, % (test concentration not listed) | 340,000 tested, 0.43% active | AID 504454, 2011;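 active means response above a set limit, near 3 SD of response in nonfluorescent compounds, cut at about 42% in these data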;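 further: stock transfer was 100 nL into about 11 µL; a reference agonist was the positive control; negative values mostly stem from fluorescent compounds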
Target sequence (P07550 whole entry, looked up): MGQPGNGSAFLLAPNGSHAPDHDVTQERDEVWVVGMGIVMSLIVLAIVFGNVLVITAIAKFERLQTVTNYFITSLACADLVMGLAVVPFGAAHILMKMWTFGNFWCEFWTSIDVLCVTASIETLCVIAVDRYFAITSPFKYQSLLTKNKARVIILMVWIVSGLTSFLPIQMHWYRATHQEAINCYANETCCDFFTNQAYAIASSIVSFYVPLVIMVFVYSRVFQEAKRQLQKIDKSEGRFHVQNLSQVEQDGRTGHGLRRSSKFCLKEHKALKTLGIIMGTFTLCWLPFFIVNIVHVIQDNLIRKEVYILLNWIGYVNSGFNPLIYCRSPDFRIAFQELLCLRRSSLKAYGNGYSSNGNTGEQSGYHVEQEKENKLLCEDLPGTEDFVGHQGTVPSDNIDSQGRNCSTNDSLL
HNF4A DNA FP = change in binding of human HNF4A to DNA, primary screen, biochemical, fluorescence polarization, FITC-DNA; 1 h; activity change, % at 10 µM; 360,000 tested, 0.3% active; AID 1224865, 2016; in the data active means activity change above about 30%, passing the limit was not always enough;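 further: controls were the assay level and a saturating level of protein; the project sought stronger binding though the title names inhibitors; some compounds called inactive have numbers as strong as hits; positive values seem to mean higher polarization but the record does not say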
Target sequence (P41235 whole entry, looked up): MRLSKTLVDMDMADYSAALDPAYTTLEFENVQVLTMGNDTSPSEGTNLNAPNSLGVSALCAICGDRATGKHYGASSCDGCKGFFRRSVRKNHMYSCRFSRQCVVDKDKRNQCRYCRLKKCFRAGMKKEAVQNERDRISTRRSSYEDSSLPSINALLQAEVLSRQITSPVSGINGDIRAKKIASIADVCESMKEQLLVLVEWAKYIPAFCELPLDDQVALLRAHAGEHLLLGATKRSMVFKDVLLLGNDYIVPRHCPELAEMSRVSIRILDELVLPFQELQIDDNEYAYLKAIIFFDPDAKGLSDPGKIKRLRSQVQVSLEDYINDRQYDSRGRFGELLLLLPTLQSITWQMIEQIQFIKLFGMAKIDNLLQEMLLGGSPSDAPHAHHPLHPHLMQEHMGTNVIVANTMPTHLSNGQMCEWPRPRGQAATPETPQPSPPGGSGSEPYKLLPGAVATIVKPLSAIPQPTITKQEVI
E coli growth = E. coli growth inhibition, primary screen, OD600; Escherichia coli growth, 23 h; hits give low values; 330,000 tested, 0.21% active; OD600 absorbance (test concentration not listed);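 active means OD600 absorbance below the run mean of sample wells minus 3.6 SD, in any replicate, cut at about 0.56 in these data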;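 further: stock transfer was 300 nL into about 60 µL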
FGF22 binding = binders of human FGF22 protein, primary screen, FGF22 synaptogenesis inhibitor project, biophysical, thermal shift, single point | Fibroblast growth factor 22 (Homo sapiens), Q9HCT0 | recombinant FGF22 thermal shift, SYPRO orange fluorescence; percent of sucrose octasulfate shift, DMSO zero | calls only at 9.99 µM | 340,000 tested, 1.5% active | AID 651658, 2012;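 active means melting point raised past a set limit in the mean and every replicate; three in four hits are not shown here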
Target sequence (Q9HCT0 whole entry, looked up): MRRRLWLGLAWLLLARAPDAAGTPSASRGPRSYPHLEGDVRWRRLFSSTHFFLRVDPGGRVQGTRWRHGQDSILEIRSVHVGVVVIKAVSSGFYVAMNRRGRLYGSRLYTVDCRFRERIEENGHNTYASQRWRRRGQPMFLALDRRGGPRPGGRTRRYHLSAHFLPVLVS
ALR inh = inhibitors of human ALR sulfhydryl oxidase, primary screen, biochemical, H2O2 detection, HRP-luminol luminescence, single point; FAD-linked sulfhydryl oxidase ALR (Homo sapiens), P55789; purified ALR, DTT oxidation; inhibition, % (no concentration beside the values); 290,000 tested, 3.8% active; AID 485317, 2010;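 active means mean and each replicate at 75% or more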;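 further: stock transfer was 7.5 nL into about 7.5 µL; 0% = neutral wells and 100% = wells with inactivated enzyme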
Ecoli rRNA inh OD600 = also measured in Ecoli rRNA inh; calls as there; OD600 change, %; measured here: OD600 growth;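 optical density of the mix in the first replicate; 0 = DMSO median and -100 = no signal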
Ecoli rRNA inh RFP = recorded beside Ecoli rRNA inh, whose call it bears; RFP signal change, %; measured here: RFP humanized mutant strains;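 first replicate; 0 = DMSO median and -100 = no signal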
Numbers without * were called inactive; & = joins results of further samples. Some of the compounds tested (hit frequency here may not be typical).

For C[C@H](CO)N1C[C@H](C)[C@@H](CN(C)C(=O)Nc2ccccc2)Oc2c(NS(=O)(=O)c3cccs3)cccc2C1=O the results were UCH37 DUB inh 0.7, Ecoli rRNA inh 1&4, Beta2AR agonist 4, HNF4A DNA FP -1.7, E coli growth 0.76, FGF22 binding inactive, ALR inh 4, Ecoli rRNA inh OD600 5&-1 and Ecoli rRNA inh RFP -0.5&-1.8.
`Cc1ccc(CN2CCN(/N=C/c3ccccc3)CC2)cc1` gave Ecoli rRNA inh 2, Beta2AR agonist -1, HNF4A DNA FP 0.8, FGF22 binding inactive, ALR inh -1, Ecoli rRNA inh OD600 7 and Ecoli rRNA inh RFP -0.1.
O=C(/C=C/c1ccc(F)cc1)NCCNC(=O)/C=C/c1ccc(F)cc1 was read as UCH37 DUB inh -0.6, Ecoli rRNA inh 14, Beta2AR agonist 1, HNF4A DNA FP -0.5, E coli growth 0.73, ALR inh -1, Ecoli rRNA inh OD600 15 and Ecoli rRNA inh RFP 2.9.
`COc1cccc(C(=O)NC2CCN(CC(=O)NCc3ccccc3OC)CC2)c1` gave UCH37 DUB inh 0.7, Beta2AR agonist 6, HNF4A DNA FP 0.1, E coli growth 0.71 and ALR inh -3.
Screening COc1ccc2c(C)c(C(=O)NCC(C)O)oc2c1OC (stereo unspecified) returned UCH37 DUB inh -42, Beta2AR agonist 0, HNF4A DNA FP 0.8, E coli growth 0.77 and ALR inh -10.
For COc1ccc2[nH]c(C(=O)O)c(NC(=O)c3ccccc3[N+](=O)[O-])c2c1 the results were UCH37 DUB inh 1.1, Ecoli rRNA inh 5, Beta2AR agonist -2, HNF4A DNA FP 1.6, E coli growth 0.68, FGF22 binding inactive, ALR inh 13, Ecoli rRNA inh OD600 1 and Ecoli rRNA inh RFP -8.3.
Screening CC1CCC(C(O)(C(=O)O)C2CCCCC2)CC1C (stereo unspecified) returned Ecoli rRNA inh -3, Beta2AR agonist 0, HNF4A DNA FP -0.9, FGF22 binding inactive, Ecoli rRNA inh OD600 -22 and Ecoli rRNA inh RFP -3.4.
COc1cccc(CN2CCC(n3nccc3NC(=O)CCOc3ccccc3)CC2)c1O was read as UCH37 DUB inh 0.5, Beta2AR agonist 3, HNF4A DNA FP -1.0, E coli growth 0.63 and ALR inh 94*.
Screening CCC1=NN(C(=O)c2ccccc2Br)C(O)(c2ccc(Br)cc2)C1 (stereo unspecified) returned UCH37 DUB inh 2.7, Ecoli rRNA inh -11, Beta2AR agonist 10, HNF4A DNA FP -2.8, E coli growth 0.67, FGF22 binding inactive, ALR inh 1, Ecoli rRNA inh OD600 -16 and Ecoli rRNA inh RFP -3.8.
COc1cc(CNCCCN2CCOCC2)c(Br)cc1OCC(=O)Nc1ccccc1C was read as UCH37 DUB inh 1.5, Ecoli rRNA inh 13, Beta2AR agonist -5, HNF4A DNA FP 2.7, E coli growth 0.71, FGF22 binding inactive, ALR inh 6, Ecoli rRNA inh OD600 12 and Ecoli rRNA inh RFP 0.5.
Screening COc1cc(C(O)c2nc(/C=C/c3ccc(C(F)(F)F)cc3)cs2)ccc1F (stereo unspecified) returned Ecoli rRNA inh -23, HNF4A DNA FP -2.8, FGF22 binding inactive, Ecoli rRNA inh OD600 -60 and Ecoli rRNA inh RFP 29.
Screening COc1cccc(NC(=O)COc2ccc(C)cc2)c1 returned UCH37 DUB inh 0.5, Beta2AR agonist 2, HNF4A DNA FP 4.5, E coli growth 0.69 and ALR inh -4.
For CCn1cc(CN2CCN(C)C(CCO)C2)c2ccccc21 (stereo unspecified) the results were UCH37 DUB inh 1.0, Ecoli rRNA inh 6, Beta2AR agonist -4, HNF4A DNA FP -0.6, E coli growth 0.72, FGF22 binding inactive, ALR inh 1, Ecoli rRNA inh OD600 10 and Ecoli rRNA inh RFP -0.4.
`CCn1ncc(C2=NOC(C(=O)NCC(C)C)C2)c1C` (stereo unspecified) gave UCH37 DUB inh 2.6, Beta2AR agonist 2, HNF4A DNA FP -3.7, E coli growth 0.72 and ALR inh -11.
`Nc1nncn1C(=O)c1ccccc1Cl` gave UCH37 DUB inh 2.6, Ecoli rRNA inh 11, Beta2AR agonist 9, HNF4A DNA FP 5.4, E coli growth 0.67, FGF22 binding inactive, ALR inh 1, Ecoli rRNA inh OD600 7 and Ecoli rRNA inh RFP 1.1.
`COc1cccc(CC2(CO)CCCN(Cc3[nH]c4ccc(C)cc4c3C)C2)c1` (stereo unspecified) gave UCH37 DUB inh 2.3, Ecoli rRNA inh 6, Beta2AR agonist 5, HNF4A DNA FP 6.6, E coli growth 0.64, FGF22 binding inactive, ALR inh -3, Ecoli rRNA inh OD600 2 and Ecoli rRNA inh RFP 5.0.
Screening CCOc1ccc(C(=O)NCc2ccco2)cc1Cl returned UCH37 DUB inh 2.5, Ecoli rRNA inh 1, Beta2AR agonist 13, HNF4A DNA FP 0.6, E coli growth 0.68, FGF22 binding inactive, ALR inh 2, Ecoli rRNA inh OD600 -1 and Ecoli rRNA inh RFP -4.0.
For COC(=O)c1c(NC(=O)c2ccccc2OC)sc(C(=O)N2CCOCC2)c1C the results were UCH37 DUB inh -101, Ecoli rRNA inh 10, Beta2AR agonist -9, HNF4A DNA FP 1.4, E coli growth 0.7, FGF22 binding inactive, ALR inh -4, Ecoli rRNA inh OD600 4 and Ecoli rRNA inh RFP -0.6.
COc1cccc(C(=O)O/N=C(\N)Cc2ccc(Cl)cc2)c1 was read as UCH37 DUB inh -0.8, Beta2AR agonist 8, HNF4A DNA FP 1.1, E coli growth 0.69 and ALR inh -18.
COc1cccc(NC(=O)C(c2ccccc2)N2CCN(c3ccccn3)CC2)c1 (stereo unspecified) was read as UCH37 DUB inh 3.6, Ecoli rRNA inh -19*, Beta2AR agonist -3, HNF4A DNA FP 1.4, E coli growth 0.69, FGF22 binding inactive, ALR inh 0, Ecoli rRNA inh OD600 -5.9* and Ecoli rRNA inh RFP 4.1*.
`O=C(Nc1ccc([N+](=O)[O-])cn1)C1CCCCC1` gave UCH37 DUB inh 3.3, Beta2AR agonist 12, HNF4A DNA FP 3.1, E coli growth 0.69 and ALR inh -4.
`CC(C)C(C)(C#N)NC(=O)CSc1nncn1-c1ccccc1` (stereo unspecified) gave UCH37 DUB inh 1.1, Ecoli rRNA inh 8, Beta2AR agonist -3, HNF4A DNA FP 0.7, E coli growth 0.68, FGF22 binding inactive, ALR inh -8, Ecoli rRNA inh OD600 9 and Ecoli rRNA inh RFP 3.5.
COc1ccc(CNC(=O)CSc2nc3nc(C)cc(C)n3n2)cc1 was read as UCH37 DUB inh 0.5, Beta2AR agonist -1, HNF4A DNA FP 2.9, E coli growth 0.76 and ALR inh 0.
For Cc1ccccc1C(=O)N1CCN(c2ccc([N+](=O)[O-])c(NCc3ccco3)c2)CC1 the results were UCH37 DUB inh 9.4, Beta2AR agonist 4, HNF4A DNA FP -1.5, E coli growth 0.76 and ALR inh -3.

Two consecutive records from above:
For CCn1cc(CN2CCN(C)C(CCO)C2)c2ccccc21 (stereo unspecified) the results were UCH37 DUB inh 1.0, Ecoli rRNA inh 6, Beta2AR agonist -4, HNF4A DNA FP -0.6, E coli growth 0.72, FGF22 binding inactive, ALR inh 1, Ecoli rRNA inh OD600 10 and Ecoli rRNA inh RFP -0.4.
`CCn1ncc(C2=NOC(C(=O)NCC(C)C)C2)c1C` (stereo unspecified) gave UCH37 DUB inh 2.6, Beta2AR agonist 2, HNF4A DNA FP -3.7, E coli growth 0.72 and ALR inh -11.

(next part)
Screening O=C(/C=C/c1ccc(Cl)cc1)N1CCN(c2ccc([N+](=O)[O-])c(N3CCOCC3)c2)CC1 returned UCH37 DUB inh 8.4, Beta2AR agonist 0, HNF4A DNA FP -3.3, E coli growth 0.69 and ALR inh -19.
For COc1ccc(CNS(=O)(=O)NCc2ccc(C)cc2)cc1 the results were UCH37 DUB inh 1.0, Ecoli rRNA inh 1, Beta2AR agonist -1, HNF4A DNA FP 1.2, E coli growth 0.73, FGF22 binding inactive, ALR inh -7, Ecoli rRNA inh OD600 -11 and Ecoli rRNA inh RFP -2.8.
`C=CCn1c(SCC(=O)Nc2c(C)n(C)n(-c3ccccc3)c2=O)nc2ccccc2c1=O` gave UCH37 DUB inh -2.0, Ecoli rRNA inh -3, Beta2AR agonist -11, HNF4A DNA FP 0.0, E coli growth 0.7, Ecoli rRNA inh OD600 -10 and Ecoli rRNA inh RFP 0.1.
`COc1cc(C(=O)OCC(=O)NC2CC2)cc(OC)c1OC` gave UCH37 DUB inh 2.2, Ecoli rRNA inh 6, Beta2AR agonist 0, HNF4A DNA FP 0.9, E coli growth 0.65, FGF22 binding inactive, Ecoli rRNA inh OD600 9 and Ecoli rRNA inh RFP -2.6.
Screening COc1cc(CN2CCCCCC2)cc(OC)c1O returned UCH37 DUB inh 0.3, Ecoli rRNA inh 22, Beta2AR agonist 8, HNF4A DNA FP -2.1, E coli growth 0.7, FGF22 binding inactive, ALR inh -13, Ecoli rRNA inh OD600 11 and Ecoli rRNA inh RFP 3.3.
`CN(C)CCNC(=O)NC(=O)c1ccc(Cl)cc1` gave UCH37 DUB inh 7.1, Beta2AR agonist -5, HNF4A DNA FP -1.5, E coli growth 0.65 and ALR inh -25.
Screening Cc1ccc(C(=O)OCC(=O)NCc2ccc(Cl)cc2)s1 returned Ecoli rRNA inh 2, HNF4A DNA FP 2.0, FGF22 binding inactive, Ecoli rRNA inh OD600 4 and Ecoli rRNA inh RFP 1.8.
O=C(Cc1ccc(S(=O)(=O)N2CCOCC2)s1)N1CCN(c2ccc(C(F)(F)F)cc2[N+](=O)[O-])CC1 was read as Ecoli rRNA inh 1, Beta2AR agonist -12, HNF4A DNA FP 4.5, FGF22 binding inactive, ALR inh -2, Ecoli rRNA inh OD600 -16 and Ecoli rRNA inh RFP -5.6.
Cc1ccc(CNCc2ccccc2Cl)cc1 was read as UCH37 DUB inh 2.5, Beta2AR agonist -6, HNF4A DNA FP -3.2, E coli growth 0.69 and ALR inh 2.
C=C(C)CNC(=S)Nc1cccc(S(=O)(=O)NC2=NCCC2)c1 was read as UCH37 DUB inh 0.0, Ecoli rRNA inh 12, Beta2AR agonist -1, HNF4A DNA FP -1.6, E coli growth 0.71, FGF22 binding inactive, ALR inh -2, Ecoli rRNA inh OD600 10 and Ecoli rRNA inh RFP -1.1.
`COc1ccc(OC)c(NC(=O)COc2ccc(S(=O)(=O)N3CCCC3)cc2)c1` gave UCH37 DUB inh -3.0, Ecoli rRNA inh -8, Beta2AR agonist -6, HNF4A DNA FP 0.2, E coli growth 0.68, FGF22 binding inactive, ALR inh -16, Ecoli rRNA inh OD600 -12 and Ecoli rRNA inh RFP -2.7.
For Cc1ccccc1C(=O)NC(NC(=S)Nc1ccc(S(N)(=O)=O)cc1)C(Cl)(Cl)Cl (stereo unspecified) the results were UCH37 DUB inh 3.6, Beta2AR agonist 9, HNF4A DNA FP -2.7, E coli growth 0.72 and ALR inh 25.
For COc1cccc(NS(=O)(=O)c2cc(C)sc2C)c1 the results were UCH37 DUB inh 4.9, Beta2AR agonist 5, HNF4A DNA FP 4.7, E coli growth 0.72 and ALR inh 12.
